NPYLR7 ag = mosquito NPYLR7 agonism. HEK293T NPYLR7/Galpha15, GCaMP6s calcium fluorescence. activation, % at 10 µM. 0.15% of 270,000 active. AID 1259423; in the data active = activation above about 40%;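 note: 0% = vehicle and 100% = reference agonist at the receptor; some compounds past the cut are filed as inactive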
NPYLR7 ag max-min = second read-out of NPYLR7 ag, no call of its own (marks repeat the call); activation, %; measured here: Max-Min RFU normalised activation; some inactives read as strong as hits;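 span of the calcium signal over five minutes; 0% = vehicle and 100% = native peptide agonist; compound fluorescence can raise it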
* = called active by the depositor; & = joins results of further samples.

Start of the data: the first 7 compounds, ahead of the listing:
SMILES	NPYLR7 ag	NPYLR7 ag max-min
COc1cccc(CNCC2CC(c3ccc(F)cc3)=NO2)c1 (stereo not given)	0.3	-4.8
C=CCn1c(-c2ccccc2)csc1=Nc1ccccc1OC	-2.1	-5.8
CCCCCc1ccc(C(=O)Nc2ccc(N3CCCC3)c(C(=O)NCC3CCCO3)c2)cc1 (stereo not given)	-0.5	6.7
CC(C)N1C(=O)SC(=Cc2ccc(N3CCCCC3)o2)C1=O	10.5	8.5
CCOc1ccc(NC(=O)Cn2cc(OC)c(=O)cc2CSc2nccc(C)n2)cc1	-2.0	-3.3
COc1ccc(Cn2ccnc2CN(Cc2cccnc2)C(=O)CC(C)C)cc1	6.6	10.4
COc1ccccc1NC(=O)C1CC(=O)N(C)C(=Nc2ccc(Cl)cc2)S1 (stereo not given)	-4.7	-5.9

This part in full, from the first entry:
SMILES	NPYLR7 ag	NPYLR7 ag max-min
COc1cccc(CNCC2CC(c3ccc(F)cc3)=NO2)c1 (stereo not given)	0.3	-4.8
C=CCn1c(-c2ccccc2)csc1=Nc1ccccc1OC	-2.1	-5.8
CCCCCc1ccc(C(=O)Nc2ccc(N3CCCC3)c(C(=O)NCC3CCCO3)c2)cc1 (stereo not given)	-0.5	6.7
CC(C)N1C(=O)SC(=Cc2ccc(N3CCCCC3)o2)C1=O	10.5	8.5
CCOc1ccc(NC(=O)Cn2cc(OC)c(=O)cc2CSc2nccc(C)n2)cc1	-2.0	-3.3
COc1ccc(Cn2ccnc2CN(Cc2cccnc2)C(=O)CC(C)C)cc1	6.6	10.4
COc1ccccc1NC(=O)C1CC(=O)N(C)C(=Nc2ccc(Cl)cc2)S1 (stereo not given)	-4.7	-5.9
O=C(c1ccc(S(=O)(=O)N2CCOCC2)cc1)N1Cc2cc3c(cc2C2(CCCC2)C1)OCCO3	-0.1	5.9
Cc1cccc2c(CCNS(=O)(=O)NCc3ccccc3)c[nH]c12	14.6	14.6
Cc1ccc(NC(=O)Cn2nc(-c3cccs3)c3sc(C)nc3c2=O)cc1	2.3	0.1
CCN(Cc1noc(C2CCC2)n1)Cc1nccn1C	-4.7	-4.2
Cc1nc(NCc2ccco2)sc1C	1.1	7.6
COc1ccc(OC)c(S(=O)(=O)NCCc2csc3nc(-c4ccccc4F)nn23)c1	-2.7	-3.9
Cc1ccc(C(=O)N(Cc2cccc(OS(=O)(=O)c3ccc(F)cc3)c2)Cc2ccco2)cc1[N+](=O)[O-]	-12.0	-5.6
O=C(COCC(=O)NCCO)NCCO	3.6	31.7
N#Cc1ccc(S(=O)(=O)CCN2CCc3cc(Br)ccc32)cc1	1.2	-2.1
CC1(C)CC1(C(=O)NC1CCC(n2cnnc2)CC1)c1cccs1 (stereo not given)	2.0	-0.8
Cc1ccc(-c2cc(C(=O)NC(C)CCc3ccccc3)n(-c3ccc(F)cc3)n2)cc1C (stereo not given)	-2.3	2.5
CCNc1ccnc(CSc2nc3ccsc3c(=O)n2C)c1	9.7	5.4
O=C(COc1ccc(C23CC4CC(CC(C4)C2)C3)cc1)Nc1cccc(C(=O)O)c1	2.0	0.8
NC(=O)Cn1nc2c3c(cccc3c1=O)-c1ccccc1-2	1.1	-2.0
CCn1ccc(CN(C)C(=O)CSc2nnc(N)s2)n1	5.3	3.6
O=C(CSc1nc(Cl)cc(N2CCN(C(=O)C3CC3)CC2)n1)NCc1cccc(C(F)(F)F)c1	-4.6	8.6
CSc1ncccc1C(=O)N1CCCC(C(=O)c2cccc(C(F)(F)F)c2)C1 (stereo not given)	21.0	11.5
CCOC(=O)c1cnc(-c2cccc(C(F)(F)F)c2)nc1N(C)C(C)c1ccccc1 (stereo not given)	0.8	-7.0

Seven entries already listed, sorted by molar mass, lowest first:
SMILES	NPYLR7 ag	NPYLR7 ag max-min
O=C(COCC(=O)NCCO)NCCO	3.6	31.7
NC(=O)Cn1nc2c3c(cccc3c1=O)-c1ccccc1-2	1.1	-2.0
CC(C)N1C(=O)SC(=Cc2ccc(N3CCCCC3)o2)C1=O	10.5	8.5
Cc1cccc2c(CCNS(=O)(=O)NCc3ccccc3)c[nH]c12	14.6	14.6
COc1ccc(Cn2ccnc2CN(Cc2cccnc2)C(=O)CC(C)C)cc1	6.6	10.4
CCOc1ccc(NC(=O)Cn2cc(OC)c(=O)cc2CSc2nccc(C)n2)cc1	-2.0	-3.3
O=C(c1ccc(S(=O)(=O)N2CCOCC2)cc1)N1Cc2cc3c(cc2C2(CCCC2)C1)OCCO3	-0.1	5.9

(next part)
SMILES	NPYLR7 ag	NPYLR7 ag max-min
COc1ccccc1-c1nc2ccc(C)cn2c1NC(=O)C(C)(C)CCl	-2.4	2.7
CC(/C=C1\N=C(c2ccc(I)cc2)OC1=O)=C\c1ccc2c(c1)OCO2	12.4	14.2
O=C(CN1CCOC(C(F)(F)F)C1)N1CCCCC1 (stereo not given)	-1.5	-3.0
CS(=O)(=O)c1ccccc1C(=O)N(CCN1CCOCC1)c1nc2c(F)cc(F)cc2s1	9.2	1.9
O=C(N1CCOC(COCc2ccc(F)cc2Cl)C1)C1(c2ccccc2)CC1 (stereo not given)	17.9	11.0
Cc1cc(Cl)c2cc(Br)cc(F)c2n1	12.7	8.6
Cc1sc2ncnc(Sc3nnc(N)s3)c2c1C	-0.9	-1.5
CCCCN(Cc1ccco1)C(=O)C(C)c1ccccc1 (stereo not given)	-4.4	-5.0
Cc1c(C(=O)N2CCN(C(=O)c3ccc(Cl)c(Cl)c3)CC2)cc(-c2ccccc2)n1-c1ccc(F)cc1F	9.9	4.9
O=C(CSc1ccc2nc(-c3ccccc3)cn2n1)N1CCCc2ccccc21	5.6	4.7
Nc1nc2[nH]c(=O)c(=O)[nH]c2c(=O)[nH]1	-3.3	-7.4
CCC(c1ccc(F)cc1F)N1CCN(CCC(=O)NC)CC1 (stereo not given)	2.7	2.9
COCCNC(=O)C1(C)Cc2c(-c3ccc(N(C)C)cc3)ccnc2O1 (stereo not given)	2.3	10.5
COc1cccc(C(=O)NC(C(=O)N2CCCCC2)C2CCN(C(=O)C3CCCC3)CC2)c1 (stereo not given)	5.9	5.3
C=CCOc1ccc2c(c1)C(=NNc1ccc3c(Cl)cc(Cl)c(O)c3n1)c1cc(OCC=C)ccc1-2	-5.0	-10.1
COc1ccccc1C(C)(C)NCc1nnc(Cc2ccccc2)o1	0.9	0.6
CN(Cc1ccc(-c2ccccc2)cc1)C(=O)CN1CSCC1=O	5.2	3.3
Cc1ccccc1-n1nc(C)c(CNC(=O)CSc2ccc(C(F)(F)F)cn2)c1C	-8.9	-15.2
O=C1C[C@H]2CC[C@@H](CN1)N2C(=O)CCc1ccccc1	-1.9	-3.4
O=C(Cc1csc2nc(-c3ccc(F)cc3)cn12)Nc1ccc(F)c(F)c1	1.8	0.7
Cc1nc2c(=O)n(Cc3ccc(Br)cc3)nc(-c3ccco3)c2s1	3.1	0.7
O=C(CCc1ncc(-c2ccc(F)cc2F)o1)N1CCN(S(=O)(=O)c2cccc(Cl)c2)CC1	-4.9	-6.2
CC1CCN(C(=O)CSc2nc(=O)n(CCO)c3c2CCCC3)CC1	-4.5	-12.0
Cc1[nH]c(=O)sc1S(=O)(=O)N(C)c1ccccc1	-6.5&-2.6	-7.9&-1.3
CC1CCc2cc(F)ccc2N1C(=O)Cc1cc(-c2ccc3c(c2)OCO3)on1 (stereo not given)	12.8	14.6
Next compounds:
SMILES	NPYLR7 ag	NPYLR7 ag max-min
Cc1nc(C)c(C(=O)NCCn2ncc3c(N4CCCCCC4)ncnc32)s1	1.1	-2.1
COCCNC(=O)c1cc2cccnc2n(C(C)C)c1=O	-3.5	-7.5
Brc1ccc(NCc2ccsc2)cc1	9.6	6.7
CCN(CC)c1ncnc(N2CCCCC2)c1N	18.4	9.0
C/C=C(\C)C(=O)N1CCC(c2nc(-c3ccc(F)c(F)c3)no2)CC1	-7.0	-11.8
Cc1ccnc(NS(=O)(=O)c2ccc(N3C(=O)C4CC=CCC4C3=O)cc2)n1 (stereo not given)	3.6	1.2
O=C(Nc1ccc(F)c(F)c1)N1CCN(c2ccc3nnc(C4CC4)n3n2)CC1	17.0	16.8
Cc1cc(=O)n2[nH]cc(-c3ccccc3Cl)c2n1	2.7	10.1
C=CCN1C(=O)/C(=C\c2ccccn2)SC1=S	3.5	4.9
COC(=O)c1ncccc1OCc1nc(-c2sccc2C)oc1C	10.8	9.0
Cc1ccc(C(=O)Oc2coc(CSc3nccn3C)cc2=O)cc1	-6.5	-10.2
CCN(CC)Cc1cnc2c(C(=O)N3CC=CCC3)cnn2c1	9.9	8.5
O=C(NC1CCCCC1)NC1CCN(C(=O)COC2CCCCC2)CC1	11.2	10.0
CCCCCN(CC(=O)Nc1cc(C(C)(C)C)nn1-c1ccc(OC)cc1)C(=O)C(CC)c1ccccc1 (stereo not given)	14.0	9.3
CCc1nnc(CN2CCCC(C(=O)Nc3ccc(C)cn3)C2)o1 (stereo not given)	10.6	3.9
CCCCCn1c(=O)c2c(nc3n2CCN3c2ccc(OC)cc2OC)n(C)c1=O	-2.5	-5.1
O=C(O)c1cccnc1CN1CCCCC1CCc1cccc(O)c1 (stereo not given)	-1.8	-5.4
COC(=O)c1cc(C)sc1NC(=S)NCCn1cc(Cl)cn1	-9.2	-13.5
COc1ccc(C)c2sc(=NC(=O)c3cc(Cl)sc3Cl)n(C)c12	0.4	68.2
CC1=C(C(=O)Nc2ccccc2)C(C=Cc2ccccc2)n2ncnc2N1 (stereo not given)	-15.5	-15.7
CCOc1ncccc1C(=O)N1CC[C@@H](c2sccc2C)[C@H](O)C1	5.6	1.5
CCOC(=O)CCCNC(=O)CSc1nnc(-c2cccs2)n1-c1ccccc1	-0.5	11.8
Cn1nc(C2CCCN(C(=O)CCc3cccnc3)C2)n(-c2ccccc2)c1=O (stereo not given)	23.6	11.7
CCOC(=O)CC(=O)CSc1nc(-c2cccnc2)ccc1C#N	-2.6	-4.3
COc1ccccc1C=Nc1c(C)n(C)n(-c2ccccc2)c1=O	13.3	3.3
More compounds.
SMILES	NPYLR7 ag	NPYLR7 ag max-min
COCCCN1CC2=C(C1=O)C(c1ccccc1F)NC(=O)N2C (stereo not given)	34.2	31.6
CCN(Cc1cnn(C)c1)C(=O)c1cc(Cn2ccnc2C(C)C)[nH]n1	3.7	3.2
COc1cccc2cc(C(N)=O)c(=Nc3ccc(F)cc3)oc12	-5.7	-10.0
Cc1ccc(NC(C)(C(=O)NCc2c(C)n[nH]c2C)c2ccccc2)cc1 (stereo not given)	-3.1	-7.3
Cc1c(Cl)cccc1S(=O)(=O)N1CCC(c2cn(Cc3cccc(F)c3)c3ccccc23)CC1	28.5	13.9
COC(=O)[C@@H]1C[C@@H](N(C)C)CN1C(=O)CCc1cc(Cl)no1	2.4	1.6
Cc1cc(C)n2c(C(=O)N3CCCC(N4CCC(CO)CC4)C3)nnc2n1 (stereo not given)	12.3&-3.7	9.7&-5.9
O=C1NCCN(CC2CCCCC2)C1CC(=O)N1CCCCO1 (stereo not given)	0.9	-2.4
COc1c(Cl)cc(Cl)cc1/C=C(\C#N)c1nn(CCO)c(N)c1C#N	3.3	0.2
Cc1noc(C)c1CCC(=O)N1CCCC(CO)(Cc2ccccc2)C1 (stereo not given)	-1.5	1.0
COc1ccc(Cl)cc1C1=N/C(=C/c2cccc3ccccc23)C(=O)O1	3.8	-4.2
O=C1CSC(c2cccnc2)N1c1ccc(Br)cc1 (stereo not given)	-11.4	-11.9
COc1ccc2c(c1)C1CC(C)(O2)N(C)C(=O)C1S(=O)(=O)c1ccc(C(C)C)cc1 (stereo not given)	8.2	11.3
CCOc1cccc(N2CCN(C(=O)c3ccccc3C)C(C)C2=O)c1 (stereo not given)	23.2	22.6
CCCCCn1c(N2CCNCC2)nc2c1c(=O)[nH]c(=O)n2C	-0.6	5.1
CCOC(=O)c1cc2n(c1N(C(C)=O)C(C)=O)-c1ccccc1C2=O	6.7	5.1
Cc1cccc(Nc2nc3nonc3nc2NC(C)C)c1C	1.8	0.4
CC(C)Cn1nc(C(=O)O)c2c1CCN(C(=O)c1ccc3c(c1)OCCN3C)C2	-7.5	-8.3
O=C(CSc1ccc2nnc(CCNS(=O)(=O)c3ccccc3)n2n1)Nc1ccc(F)cc1	31.8	17.5

Quoted from the listing:
CC(C)Cn1nc(C(=O)O)c2c1CCN(C(=O)c1ccc3c(c1)OCCN3C)C2 in NPYLR7 ag max-min → -8.3
COc1c(Cl)cc(Cl)cc1/C=C(\C#N)c1nn(CCO)c(N)c1C#N in NPYLR7 ag → 3.3
COc1ccc2c(c1)C1CC(C)(O2)N(C)C(=O)C1S(=O)(=O)c1ccc(C(C)C)cc1 (stereo not given) in NPYLR7 ag → 8.2
CCCCCn1c(N2CCNCC2)nc2c1c(=O)[nH]c(=O)n2C in NPYLR7 ag max-min → 5.1
O=C1CSC(c2cccnc2)N1c1ccc(Br)cc1 (stereo not given) in NPYLR7 ag → -11.4
Cc1cc(C)n2c(C(=O)N3CCCC(N4CCC(CO)CC4)C3)nnc2n1 (stereo not given) in NPYLR7 ag max-min → 9.7&-5.9

These rows are one share of the data; rates above refer to the full screens.
